Assay outcomes from PubChem.
GLA inh pH 4.5 = qHTS Assay for Inhibitors of Human alpha-Galactosidase at pH 4.5. purified enzyme, 4-MU-alpha-Gal fluorescence, pH 4.5. 230,000 tested, under 10 active. activity change, negative = inhibition, % at 105 µM. Alpha-galactosidase A (Homo sapiens), P06280; inconclusive = small, poorly fitted or top-dose-only inhibition, or a rising curve; inactive = flat fitted curve, though single readings scatter; no compound was filed as active;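 also: 0% = full activity with enzyme and -100% = basal without enzyme; dose as in the result columns while the protocol names 77 µM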
miR-21 reporter = qHTS Assay for Modulators of miRNAs and/orActivators of miR-21; HeLa miR-21 FLuc reporter, luciferase, 48 h; 340,000 tested, under 10 active; Potency, µM (doses to about 38.3 µM), inactives show top-dose reporter change, positive = more light; active = well fitted rising curve with a large enough effect; inconclusive = small, poorly fitted or top-dose-only effect; inactive = no such curve, though single readings can be large or run the other way;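 also: % of control where 0% means no effect; miR-21 action dims this reporter so a rising signal means less miR-21 action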
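HeLa miR-21-FLuc reporter line, endogenous miR-21; 2000 cells/well in DMEM/10% FBS; compound titration up to ~40uM final, 48 h, 37 degree Celsius; luciferase detection reagent, 15 min lysis, CCD luminescence.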
Rango-impB inh = qHTS Assay for Inhibitors of Rango (Ran-regulated importin-beta cargo) - Importin beta complex formation; Rango CFP/YFP FRET sensor + importin beta, 45 min; Importin subunit beta-1 (Homo sapiens), Q14974; Potency, µM (top dose mostly 92.2 µM), for inactives: at the highest dose inhibition of complex formation; 0.031% of 340,000 active; AID 540263, 2011; active = rising FRET ratio curve, often small or poorly fitted; inconclusive = mostly compound fluorescence or quenching in the first reads; inactive = flat curves in all reads;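 also: potency is read from the fitted curve at half-maximal effect; 0% = DMSO wells and 100% = buffer wells lacking importin beta; nearly all actives have a fitted effect of over 15% in size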
Target sequence (Q14974 whole entry, looked up): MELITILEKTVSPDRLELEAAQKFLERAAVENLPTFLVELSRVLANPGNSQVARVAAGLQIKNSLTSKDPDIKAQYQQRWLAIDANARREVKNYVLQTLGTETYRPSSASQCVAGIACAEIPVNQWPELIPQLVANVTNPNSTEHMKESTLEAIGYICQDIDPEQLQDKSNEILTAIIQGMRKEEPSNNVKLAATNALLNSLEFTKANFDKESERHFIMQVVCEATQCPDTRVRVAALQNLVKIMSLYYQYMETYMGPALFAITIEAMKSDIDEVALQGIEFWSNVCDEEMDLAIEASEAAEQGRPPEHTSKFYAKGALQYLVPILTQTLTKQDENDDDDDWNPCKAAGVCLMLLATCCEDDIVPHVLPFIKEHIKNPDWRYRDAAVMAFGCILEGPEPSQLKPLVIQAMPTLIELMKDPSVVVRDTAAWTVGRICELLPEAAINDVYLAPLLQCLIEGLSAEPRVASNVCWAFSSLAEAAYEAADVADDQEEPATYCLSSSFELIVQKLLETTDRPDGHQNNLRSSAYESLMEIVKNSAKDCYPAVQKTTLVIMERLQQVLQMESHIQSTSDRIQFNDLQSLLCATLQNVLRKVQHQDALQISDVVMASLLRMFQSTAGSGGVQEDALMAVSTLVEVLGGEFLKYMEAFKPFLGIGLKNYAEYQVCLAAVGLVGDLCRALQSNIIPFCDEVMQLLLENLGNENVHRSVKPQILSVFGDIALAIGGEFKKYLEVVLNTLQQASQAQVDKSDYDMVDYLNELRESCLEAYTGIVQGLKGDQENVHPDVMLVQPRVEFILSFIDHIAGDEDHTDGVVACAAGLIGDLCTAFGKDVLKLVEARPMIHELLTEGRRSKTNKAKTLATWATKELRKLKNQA
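FRET biosensor Rango (snurportin 1 IBB between N-terminal EYFP and C-terminal Cerulean), 50 nM in PBS/1 mM DTT/0.02% Tween-20/0.1% BSA, preincubated 5 min RT with compound; 0.125 microM importin beta added, 45 min RT, CFP/YFP FRET ratio read.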
Rango release inh = qHTS Assay for Inhibitors of RanGTP induced Rango (Ran-regulated importin-beta cargo) - Importin beta complex dissociation. Snurportin-1 (Homo sapiens) + GTP-binding nuclear protein Ran (Homo sapiens) + Importin …. 0.071% of 340,000 active. Potency, µM (series often up to 46.1 µM), without a hit: at the top dose activity change, negative = inhibition. Biochemical FRET Rango-importin beta, RanGTP-induced dissociation; active means falling FRET ratio curve, often poorly fitted, with flat reads before Ran was added; inconclusive means other falling curves, or compound fluorescence or quenching; inactive means flat or rising ratio curve;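 also: potency is read from the fitted curve at half-maximal effect; % of control where 0% means no effect; nearly all actives have a fitted effect of over 45% in size; -100% = wells without RanGTP and RCC1; the record marks most hits as doubtful in a second field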
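Rango (0.1 uM)–importin beta (0.25 uM) complex; RanGTP-RCC1 trigger; 45 min RT; CFP/YFP FRET read.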
Starred values were filed as active, the others as inactive; u = inconclusive; x = no result given; & = joins results of further samples; [ ] = dose if it differs, or a comment. An excerpt; count on the stated rates, not on these rows.

Rango release inh	miR-21 reporter	GLA inh pH 4.5	Rango-impB inh	SMILES
13.7%	0.3%	x	-1.7%	O=C(COc1ccc(S(=O)(=O)N2CCCCC2)cc1Cl)N1CCCC1
5.6%	1.4%	-5.9	-3.0%	Cc1ccc(NC(=O)Cn2cccc2C2=NC(c3ccccc3)CO2)cc1C (stereo not given)
1.1%	0.0%	-13.9	3.7%	Cc1ccc(CCNC(=O)C2CCN(S(=O)(=O)N3CCC4(CC3)OCCO4)CC2)cc1
u	x	x	-1.4%	CCCc1cc(=O)oc2c(C)c(OS(C)(=O)=O)ccc12
-8.2%	-13.3%	-14.4	u	CN(C)C(CNC(=O)c1cccc(OC(F)F)c1)c1ccco1 (stereo not given)
-6.6%	-8.5%	x	2.0%	CCN(CC)C(=O)Cn1cc(C(=O)C(=O)NCCCN2CCCCC2)c2ccccc21
8.9%	u	u	5.3%	COc1ccc(S(=O)(=O)N(C(C)=O)c2ccc(OC(C)=O)c3ccccc23)cc1[N+](=O)[O-]
-9.4%	1.3%	x	-3.2%	O=C1Nc2ccccc2C1c1ncc(C(F)(F)F)cc1Cl (stereo not given)
-2.2%	-2.1%	x	2.7%	CCOC(=O)c1c(S(=O)(=O)NCC(=O)Nc2ccc(F)cc2F)c(C)n(C)c1C
1.0%	x	x	-0.3%	Cc1occc1-c1nnc(SCC(=O)NC2CCCCC2)o1
5.9%	x	x	2.0%	N#CCCN(C(=S)Nc1ccc(S(=O)(=O)N2CCOCC2)cc1)c1ccccc1F
19.4%	-2.4%	x	1.6%	CCCc1cc(=O)oc2c(C)c(OC(C)C(=O)NCc3ccccn3)ccc12 (stereo not given)
0.8%	0.6%	-1.5	1.4%	O=C(Cn1nnc(-c2ccccc2-n2cnnn2)n1)NCc1ccccc1
-18.3%	28.8%	-3.6	8.6%	Cc1ccc2nc(SCC(=O)Nc3cc(C(F)(F)F)ccc3N3CCOCC3)[nH]c2c1
-11.1%	-21.5%	-1.9	0.6%	Cc1cc(Cl)ccc1OCCCC(=O)N1CCN(C(=O)c2ccco2)CC1
1.8%	-8.8%	-5.3	0.2%	Cc1cc2oc(=O)cc(CN3CCC(C)CC3)c2cc1Cl
-7.0%	-1.9%	-2.6	0.6%	COCCNC(=O)c1snc2ccc(Cl)cc12
5.2%	-0.2%	x	-7.4%	Cc1cc(C(=O)OCC(=O)c2ccccc2)c2ccccc2n1
-11.3%	x	x	-1.9%	CCCCn1c(N)c(N(CC(C)C)C(=O)c2cc(-c3ccco3)nc3ccccc23)c(=O)[nH]c1=O
-4.6%	13.3%	-5.2	1.7%	COc1ccc2cc(CN(CC3CCCO3)C(=O)Nc3ccccc3OC)c(=O)[nH]c2c1 (stereo not given)
-14.1%	10.9%	-4.3	1.9%	COc1ccc(-c2noc(CCC(=O)NCC3CCN(Cc4cccc(C)c4)CC3)n2)cc1
-8.0%	-4.2%	x	0.0%	CC(C)(C)c1ccc(C(CC(=O)O)NC(=O)Cc2ccccc2)cc1 (stereo not given)
0.7%	17.3%	x	-1.3%	CC(=O)c1cccc(NS(=O)(=O)c2ccc(NC(=O)N3CCCCC3)cc2)c1
-11.0%	-1.3%	-1.2	0.0%	Cc1ccc2c(CN3C(=O)NC(C)(c4ccc5c(c4)OCO5)C3=O)cc(=O)oc2c1 (stereo not given)
-15.1%	-11.0%	-6.9	-2.1%	O=C1/C(=C/c2ccccn2)SC(=S)N1c1ccc(O)cc1
1.1%	-12.7%	5.9	0.7%	Cc1nc(CN(C)Cc2nc(Cc3cccc(F)c3)no2)cs1
-11.9%	u	8.6	4.5%	Cc1cc(N2CCOCC2)ccc1/C=C\[N+](=O)[O-]
-9.7%	-0.8%	7.4	-0.5%	CCOC(=O)N1CCN(C(=O)C(C)N(c2ccccc2)S(C)(=O)=O)CC1 (stereo not given)
-16.6%	-4.7%	2.0	-1.9%	Cc1ccc(-c2c(C#N)c(N)nc3c2CCCCC3)cc1
-12.8%	2.1%	x	-0.2%	COc1ccc(CNS(=O)(=O)c2ccc3c(c2)C(C)(C)C(=O)N3C)cc1

Next section:
Rango release inh	miR-21 reporter	GLA inh pH 4.5	Rango-impB inh	SMILES
-1.2%	-0.3%	x	-2.0%	O=CNc1ccc(OC(=O)c2cncc(Br)c2)cc1
-9.8%	10.0%	x	-0.4%	O=C(COC(=O)C1C2CC3OC(=O)C1C3C2)Nc1cccc(Cl)c1 (stereo not given)
3.7%	-13.9%	0.2	0.1%	C/C(=N\NC(=O)c1ccc(Cl)cc1)c1ccc(N2CCOCC2)cc1
9.8%	-7.1%	4.2	u	O=C(CCN1C(=O)C2C3C=CC(C3)C2C1=O)NCCN1CCCc2ccccc21 (stereo not given)
u	u	x	u	Cc1ccc2c(c1)c(/C=C/c1cc[n+](C)cc1)c(C)n2C
10.7%	-1.5%	12.4	-5.5%	COc1cccc(NC(=S)N2CCN(C/C=C/c3ccccc3)CC2)c1
4.4%	25.1%	-16.2	-1.3%	Cc1ccc(S(=O)(=O)N(C)C)cc1NC(=S)N1CCN(Cc2ccc3c(c2)OCO3)CC1
-0.6%	x	x	-1.3%	O=C(CCc1nc(-c2ccccc2)no1)NC1CCCCCC1
1.3%	0.3%	-12.2[21.1 µM]	5.7%	O=C(CCNC(=O)Cn1ccc2ccccc2c1=O)NCCCN1CCOCC1
1.6%	9.4%	x	7.3%	CC(C)c1ccc(NC(=O)[C@@H](NC(=O)N2CC(=O)Nc3ccccc32)C(C)C)cc1
-7.2%	-3.1%	x	u	Cc1cc(CN(C)C(=O)c2ccc(OC3CCN(CCc4ccccc4)CC3)cc2)on1
0.9%	-2.6%	x	-3.4%	CCOC(=O)Cc1csc(NC(=O)CN2CCN(c3ccccc3)CC2)n1
8.3%	-13.7%	6.3	-1.3%	Nc1ncnc(Nc2ccccc2C(F)(F)F)n1
5.7%	8.0%	7.9	1.3%	Cc1ccccc1OCc1nnc(SCc2cc(=O)[nH]c3ccccc23)o1
-3.0%	-4.9%	3.4	-0.6%	CC12CC(c3ccccc3O1)C(C(=O)NCc1ccccc1)C(=O)N2 (stereo not given)
19.9%	-5.7%	3.0	2.2%	CCOC(=O)N1CCN(C(=S)Nc2cc(OC)c(OC)cc2C(=O)OC)CC1
0.2%	14.7%	-13.3	u	O=C(NC1CCCCC1)C(c1ccncc1)N(Cc1ccccc1)C(=O)c1ccc(-c2ccccc2)[nH]1 (stereo not given)
-4.1%	-2.7%	-3.8	0.9%	c1cncc(CNc2nc(N3CCOCC3)nc(N3CCOCC3)n2)c1
-7.4%	-20.7%	5.8	7.3%	O=C(Nc1ccc(Br)cc1)N1CCCC(O)C1 (stereo not given)
-6.0%	x	x	-0.2%	O=C(COC(=O)c1ccc([N+](=O)[O-])o1)NCc1ccc(F)cc1
-5.2%	-5.3%	11.1	-3.7%	CCOC(=O)C1/C(=N\O)CC(C)(O)C(C(=O)OCC)C1c1ccc(N(C)C)cc1 (stereo not given)
14.0%	-2.7%	-0.6&-0.5&0.2	-0.1%	Cc1c(Cl)cccc1Nc1ccccc1C(=O)O
1.0%	0.5%	-3.7	1.6%	CCOC(=O)CSc1nnc(CNc2ccccc2Cl)n1-c1ccccc1
13.8%	15.0%	x	-2.8%	CC1Sc2ccc(S(=O)(=O)CCC(=O)NCc3ccccc3Cl)cc2NC1=O (stereo not given)
8.4%	0.7%	6.2	-0.2%	O=C(COC(=O)C1(c2ccccc2F)CCCC1)N1CCc2ccccc21
4.9%	-6.7%	0.8	0.0%	COc1cccc(CNC(=O)c2ccc3nc[nH]c3c2)c1
0.4%	-6.3%	-7.8	-2.7%	CCOC(=O)c1ccc[n+](CC(=O)c2ccccc2)c1
-3.2%	3.6%	x	-0.3%	O=C(N/N=C/c1ccco1)c1ccc(NC(=O)C2CCCCC2)cc1
-12.9%	x	x	-3.1%	COc1ccc(NC(=O)CN2C(=O)NC(C)(C3CCCCC3)C2=O)c(OC)c1 (stereo not given)
21.9%	-46.5%	8.8	2.8%	CN1CCN(/N=C/c2ccc(-c3ccccc3)cc2)CC1

3 structures out of the list, arranged by molar mass, ascending.
Rango release inh	miR-21 reporter	GLA inh pH 4.5	Rango-impB inh	SMILES
4.9%	-6.7%	0.8	0.0%	COc1cccc(CNC(=O)c2ccc3nc[nH]c3c2)c1
-1.2%	-0.3%	x	-2.0%	O=CNc1ccc(OC(=O)c2cncc(Br)c2)cc1
4.4%	25.1%	-16.2	-1.3%	Cc1ccc(S(=O)(=O)N(C)C)cc1NC(=S)N1CCN(Cc2ccc3c(c2)OCO3)CC1

The list goes on:
Rango release inh	miR-21 reporter	GLA inh pH 4.5	Rango-impB inh	SMILES
0.6%	-3.0%	14.7	0.6%	CCn1c(SCC(=O)Nc2cccnc2Cl)nnc1-c1ccccc1
4.1%	0.2%	10.4	-4.9%	O=S(=O)(Nc1cccnc1)c1ccccc1
2.5%	2.1%	x	-0.4%	CCOC(=O)C1CCCN(S(=O)(=O)c2ccc(-c3cc(C)no3)s2)C1 (stereo not given)
22.5%	-12.0%	1.4	-3.5%	CSc1ccc(/C=N/NC(=O)c2ccc(C)c(C)c2)cc1
3.1%	-3.7%	-4.6	u	CCOC(=O)C1CCN(c2ncnc3c2nnn3Cc2ccccc2Cl)CC1
1.2%	-1.7%	-9.4	1.2%	S=c1[nH]nc(-c2cc(-c3ccco3)[nH]n2)n1-c1cccc2ccccc12
-13.7%	-4.5%	-15.6	-0.5%	OC(COc1ccc(Br)cc1)CN1CCOCC1 (stereo not given)
-18.8%	-3.1%	-3.2	-0.5%	CSCC[C@@H](Nc1nc(-c2ccccc2)nc2c1oc1ccccc12)C(=O)O
-0.3%	x	x	-4.7%	CN(CC(=O)Nc1cccc(F)c1)C(=O)c1ccc(C(=O)c2ccccc2)cc1
14.0%	-1.3%	8.7	0.3%	CCOC(=O)c1ccc(CNC(=O)Cn2nnc(-c3ccccc3F)n2)o1
-3.1%	26.2%	1.4	6.4%	Nc1sc(-c2ccccc2)n[n+]1Cc1cccc2cccnc12
1.7%	x	x	-0.4%	COc1cccc(/C=C/C(=O)OCC(=O)N2CCCC2)c1OC
8.9%	-0.8%	x	-0.4%	CN1CCN(CC(=O)Nc2ccc(S(=O)(=O)N(C)C)cc2)CC1
13.9%	x	x	-1.4%	CCOc1ccc2oc(C(=O)N(Cc3nnc(-c4ccccc4Cl)o3)C3CC3)c(C)c2c1
8.9%	1.6%&-0.7%	-18.8	0.0%	COc1ccc(N2CCN(C(=O)Nc3cccc(C(F)(F)F)c3)CC2)cc1
-12.1%	-10.4%	x	-0.3%	Cc1ccc(NC(=O)COc2ccccc2C(=O)NCCc2ccccc2)cc1
35.8%	-1.4%	-5.2	-4.3%	CCn1c(SCC(=O)Nc2nc(C)cs2)nnc1C(NC(=O)c1ccccc1Cl)C(C)C (stereo not given)
x	-9.4%	4.4	x	CCN(CC)S(=O)(=O)c1ccc2c(c1)c(=O)c(C(=O)NCc1ccc3c(c1)OCO3)cn2C
-11.1%	-6.6%	-24.8	0.5%	CCCn1cc(SCC(=O)Nc2ccc3c(c2)OCO3)c2ccccc21
0.8%	-8.6%	-3.2	-0.9%	O=C(CSc1nnc(-c2cnccn2)n1Cc1ccco1)c1ccc2ccccc2c1
2.8%	x	x	0.6%	O=C(NCCc1ccccc1O)c1cc2c(cc1[N+](=O)[O-])OCO2
0.7%	-0.2%	0.0	4.0%	CC(=O)NC1(C(F)(F)F)C(=O)Nc2c1c(=O)[nH]c(=O)n2Cc1ccco1 (stereo not given)
0.5%	-6.7%	4.4	3.8%	Cc1cccc(-n2nnnc2SCc2csc(-c3ccccc3)n2)c1

Two entries from above, with two lines to a compound:
Values run as follows: Rango release inh | miR-21 reporter | GLA inh pH 4.5 | Rango-impB inh
CCN(CC)S(=O)(=O)c1ccc2c(c1)c(=O)c(C(=O)NCc1ccc3c(c1)OCO3)cn2C
    x | -9.4% | 4.4 | x
CCCn1cc(SCC(=O)Nc2ccc3c(c2)OCO3)c2ccccc21
    -11.1% | -6.6% | -24.8 | 0.5%
